BJeLR viab HTS: BJeLR cell viability loss, primary screen, luminescence, CellTiterGlo ATP; BJeLR fibroblasts viability, 48 h; HRASV12, hTERT and SV40 LT/ST transformed; viability loss activity score, % (concentration not given with the values); 30,000 compounds, 0.64% hits; AID 2275, 2010; in the data active = viability loss activity score above about 50%; about a fifth of its hits are not listed in these tables;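 also: higher score means fewer live cells and less ATP luminescence; stock transfer was 50 or 100 nL into about 30 µL; 0% = vehicle wells and 100% = a reference killing control; one replicate is shown; the record names a cut of 85%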
A1 inhib: inducers of caspase activity in MEF A1-2A-BIM cells, primary screen, A1 inhibitor project, cell-based, CaspaseGlo luminescence; caspase-Glo luminescence, 3 h; percent of clofoctol signal, DMSO as zero; caspase activation, % (no concentration beside the values); 21,000 compounds, 0.51% hits; AID 2241, 2010;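 active = most replicate scores above 10, or exactly half above 10 with mean activity above 10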;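 also: effector caspase 3 and 7 activity cleaving a DEVD luciferin substrate; 50 nL library stock added to about 30 µL; numbers are from one replicate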
Numbers without * were called inactive; x = not tested or not shown; & = joins results of further samples. The list is partial. The share of hits here may be higher or lower than overall.

smiles,BJeLR viab HTS,A1 inhib
N#C/C(=C\c1ccc(O)c(O)c1)C(=O)Nc1ccccc1,-1.2,-6.3
O=C(NCCc1ccccc1)C1CCN(S(=O)(=O)N2CCCCC2)CC1,-3.2,-0.1
C[C@H]1CN([C@@H](C)CO)C(=O)c2cccc(NC(=O)Nc3ccc4c(c3)OCO4)c2O[C@@H]1CN(C)Cc1ccc(Oc2ccccc2)cc1,-2.0,x
C[C@@H]1CN([C@@H](C)CO)C(=O)c2cccc(NS(=O)(=O)c3ccc(F)cc3)c2O[C@@H]1CN(C)Cc1ccc(C(=O)O)cc1,0.9,x
C[C@H]1CN([C@@H](C)CO)C(=O)c2cc(NS(=O)(=O)c3cccs3)ccc2O[C@H]1CN(C)S(=O)(=O)c1cn(C)cn1,2.4,0.1
Cc1c(C(=O)N2CCOCC2)[nH]c2c1C(=O)CC(c1ccc(Cl)cc1)C2 (centres undefined),0.2,x
C[C@@H]1CN([C@@H](C)CO)C(=O)c2cc(NC(=O)C3CC3)ccc2O[C@H]1CN(C)C(=O)Nc1ccc(F)cc1,4.9,0.0
CN1CCc2cc3c(cc2C(=O)Cc2ccc4c(c2C1)OCO4)OCO3,4.1&1.3,1.0&0.2

smiles,BJeLR viab HTS,A1 inhib
C[C@@H]1CN([C@@H](C)CO)C(=O)c2cc(NS(=O)(=O)c3ccc(F)cc3)ccc2O[C@@H]1CN(C)S(=O)(=O)c1cn(C)cn1,1.2,1.1
COc1ccc(S(=O)(=O)Nc2cccc3c2O[C@H](CN(C)S(=O)(=O)c2cn(C)cn2)[C@H](C)CN([C@@H](C)CO)C3=O)cc1,-1.5,x
Cc1cc(C)n(CCS(=O)(=O)c2ccc(Cl)cc2)n1,-2.7,0.1
CCN(C(=O)Cn1nc(C)n2c(cc3cc(C)ccc32)c1=O)c1ccccc1,6.4,x
Cc1ccc(N2C(=N)S/C(=C/c3sccc3C)C2=O)cc1C,-0.6,x
C=CCn1c(=S)sc2c(=O)n(/N=C/c3ccc(Cl)cc3Cl)c(C)nc21,-1.3,-0.4
Cc1ccc(S(=O)(=O)Nc2ccc3c(c2)C(=O)N([C@@H](C)CO)C[C@@H](C)[C@H](CN(C)C(=O)Nc2ccc4c(c2)OCO4)O3)cc1,-2.6,0.0
C[C@H](CO)N1C[C@H](C)[C@H](CN(C)C(=O)Nc2ccccc2)Oc2ccc(NC(=O)Cc3cn(C)c4ccccc34)cc2C1=O,0.8,-0.3

smiles,BJeLR viab HTS,A1 inhib
C=C1C(=O)O[C@H]2C1[C@H](OC(=O)/C(=C/CO)COC(=O)/C(C)=C/CO)CC(=C)[C@@H]1CC(=O)[C@@H](C)[C@@H]12 (some centres undefined),-1.9,1.2
COc1ccc(NC(=O)Nc2cccc3c2O[C@H](CN(C)C(=O)Nc2ccccc2)[C@@H](C)CN([C@@H](C)CO)C3=O)cc1,2.5,x
O=c1[nH][nH]c(=O)n1CCCc1cc2cccc3ccc4cccc1c4c32,0.9,3.3
C[C@@H]1CN([C@H](C)CO)C(=O)c2cc(NC(=O)CCN3CCOCC3)ccc2O[C@@H]1CN(C)C(=O)Nc1ccc(C(F)(F)F)cc1,3.1,-0.2
C[C@@H]1CN([C@H](C)CO)C(=O)c2cc(NC(=O)NC3CCCCC3)ccc2O[C@@H]1CN(C)Cc1ccncc1,0.2,1.4
COc1cc2cc(C)nc(Cc3cccc4ccccc34)c2cc1OC,2.1,-0.2
COc1cc(=O)n(C)c2c(OCC(O)C(C)(C)O)cccc12 (centres undefined),4.0,0.6
CC(C)NC(=O)N(C)C[C@H]1Oc2c(NC(=O)Nc3ccc(C(F)(F)F)cc3)cccc2C(=O)N([C@@H](C)CO)C[C@@H]1C,0.6,x

Whole records, quoted from the list. Screens in order: BJeLR viab HTS, A1 inhib
Record of C[C@@H]1CN([C@H](C)CO)C(=O)c2cc(NC(=O)NC3CCCCC3)ccc2O[C@@H]1CN(C)Cc1ccncc1 = 0.2, 1.4
Record of COc1ccc(NC(=O)Nc2cccc3c2O[C@H](CN(C)C(=O)Nc2ccccc2)[C@@H](C)CN([C@@H](C)CO)C3=O)cc1 = 2.5, x
Record of C=C1C(=O)O[C@H]2C1[C@H](OC(=O)/C(=C/CO)COC(=O)/C(C)=C/CO)CC(=C)[C@@H]1CC(=O)[C@@H](C)[C@@H]12 (some centres undefined) = -1.9, 1.2

(cont.)
smiles,BJeLR viab HTS,A1 inhib
O=C(Nc1cccc(F)c1)c1cccc(-c2cc3ccccc3oc2=O)c1,2.5,5.5
C[C@H](CO)N1C[C@H](C)[C@@H](CN(C)Cc2ccc3c(c2)OCO3)Oc2ccc(NS(C)(=O)=O)cc2C1=O,-2.1,-0.5
C[C@@H]1CN([C@@H](C)CO)C(=O)c2cccc(NS(=O)(=O)c3cn(C)cn3)c2O[C@H]1CN(C)C(=O)Nc1cccc2ccccc12,-9.6,x
CC(=O)Oc1ccc2cc(-c3nc(-c4ccccc4)c(C)s3)c(=O)oc2c1,-1.7,-0.7
O=C1Nc2cc(C(=O)N3CCC(Cc4ccccc4)CC3)ccc2Sc2ccccc21,0.1,-0.3
Clc1cccc(Cl)c1NC1=NCCN1,-4.5&1.5,-0.3&-0.6
CCC(C)NC(=O)C1CCCN(S(=O)(=O)c2cccc3cccnc23)C1 (centres undefined),0.3,0.5
C[C@@H]1CN([C@@H](C)CO)C(=O)c2cccc(NC(=O)C3CCCCC3)c2O[C@H]1CN(C)C(=O)Nc1ccc(F)cc1,-1.1,x

The line under a structure holds: BJeLR viab HTS	A1 inhib
- C[C@@H]1CN([C@H](C)CO)C(=O)c2cc(NS(=O)(=O)c3cccs3)ccc2O[C@@H]1CN(C)C(=O)Nc1ccc2c(c1)OCO2
→ 1.6	0.7
- N#Cc1c(C(F)(F)F)cc(-c2cccs2)nc1SCC(=O)c1ccccc1
→ 1.2	-1.3
- Cc1noc(C)c1NC(=O)Nc1ccc2c(c1)C(=O)N([C@H](C)CO)C[C@H](C)[C@@H](CN(C)C)O2
→ 0.1	-0.3
- C[C@H]1CN([C@@H](C)CO)C(=O)c2cc(NC(=O)Nc3ccccc3)ccc2O[C@H]1CN(C)Cc1ccc(Cl)c(Cl)c1
→ 2.4	0.4
- C[C@H](CO)N1C[C@H](C)[C@@H](CN(C)Cc2ccc(Oc3ccccc3)cc2)Oc2c(NC(=O)Nc3cccc4ccccc34)cccc2C1=O
→ -8.7	x
- C[C@H]1CN([C@@H](C)CO)C(=O)c2cc(NC(=O)NC3CCCCC3)ccc2O[C@H]1CN(C)C(=O)Nc1ccccc1
→ -2.4	-0.9
- CS(=O)(=O)N1CCC(C(=O)N2CCCCC2)CC1
→ -8.0	1.3
- COc1ccc(S(=O)(=O)Nc2ccc3c(c2)C(=O)N([C@H](C)CO)C[C@@H](C)[C@@H](CN(C)C(=O)Nc2ccc(C(F)(F)F)cc2)O3)cc1
→ -1.9	0.4
- CC1OC(O[C@H]2[C@@H](O)C[C@@]3(C)C(CC[C@]4(C)C3CC=C3[C@@H]5CC(C)(C)CC[C@]5(C(=O)OC5OC(C)C(OC6OCC(OC7OCC(O)C(OC8OCC(O)C(O)C8O)C7O)C(O)C6O)C(O)C5O)CC[C@]34C)[C@]2(C)CO)C(O)C(OC2OC(CO)C(O)C(O)C2O)C1O (some centres undefined)
→ 0.3	0.5
- C[C@@H]1CN([C@H](C)CO)C(=O)c2cccc(NS(=O)(=O)c3cccs3)c2O[C@H]1CN(C)Cc1ccc(C(F)(F)F)cc1
→ 1.7	x
- Cc1ccc(/C=N/n2cnc3sc4c(c3c2=O)CCCC4)o1
→ -0.1	x
- Cc1ccc(CNC(=O)CSc2nc(NC3CCCCC3)c3ccccc3n2)cc1
→ -1.5	0.2
- C[C@H](CO)N1C[C@H](C)[C@H](CN(C)C(=O)Nc2cccc3ccccc23)Oc2ccc(NS(=O)(=O)c3ccccc3)cc2C1=O
→ -5.5	1.0
- CCOC(=O)N1CCC(NC(=O)c2cc3c(-c4ccccc4F)nn(C)c3s2)CC1
→ 2.2	x
- COc1ccc(-c2[nH]nc(SC)c2C#N)cc1
→ 0.4	-1.8
- C[C@@H]1CN([C@H](C)CO)C(=O)c2cccc(NS(C)(=O)=O)c2O[C@H]1CN(C)S(=O)(=O)c1ccc(F)cc1
→ -8.2	x
- C=CCn1c2ccc(Br)cc2c2nc3ccccc3nc21
→ -5.6	-0.6
- O=C(Cn1nc(Cc2cccnc2)c2ccccc2c1=O)NCCc1ccc(Cl)cc1
→ 4.9	0.1
- COc1ccc(S(=O)(=O)N(C)C[C@H]2Oc3ccc(NS(=O)(=O)c4ccccc4)cc3C(=O)N([C@@H](C)CO)C[C@@H]2C)cc1
→ 2.1	0.4
- COc1cc(-c2nnc(SCC(=O)c3ccco3)n2C)cc(OC)c1OC
→ 3.0	-0.3
- O=C(Nc1ccccc1)Nc1ccc2nnsc2c1
→ 3.4	-5.7
- CCCNC(=O)C1CCC(CNS(=O)(=O)c2cccc3nsnc23)CC1 (centres undefined)
→ -6.4	x
- C[C@@H]1CN([C@H](C)CO)C(=O)c2cccc(NS(=O)(=O)c3ccc(Cl)cc3)c2O[C@H]1CN(C)S(=O)(=O)c1ccc(Cl)cc1
→ 2.5	x
- O=C(O)C1C2CCC(C2)C1C(=O)c1ccccc1 (centres undefined)
→ 0.4	0.4
- COc1ccc(/C=C/C(=O)c2cc(O)ccc2O)cc1
→ 16	-0.1
- C[C@H]1CN([C@@H](C)CO)C(=O)c2cccc(NC(=O)C3CCCCC3)c2O[C@H]1CN(C)C(=O)Nc1ccc(F)cc1
→ 0.4	x
- C[C@@H]1CN([C@@H](C)CO)C(=O)c2cccc(NC(=O)NC3CCCCC3)c2O[C@H]1CN(C)S(=O)(=O)c1ccc(Cl)cc1
→ 0.3	x
- C[C@H](CO)N1C[C@H](C)[C@H](CN(C)Cc2ccccc2)Oc2c(NC(=O)Nc3ccc(F)cc3)cccc2C1=O
→ 2.5	x
- Cn1c(=O)cc(OCC(=O)NCCC2=CCCCC2)c2ccccc21
→ 7.7	x
- COc1ccc(S(=O)(=O)N(C)C[C@@H]2Oc3c(NC(=O)Nc4ccc(C(F)(F)F)cc4)cccc3C(=O)N([C@@H](C)CO)C[C@H]2C)cc1
→ 0.0	x

The line under a structure holds: BJeLR viab HTS	A1 inhib
- OC(COCc1ccccc1)Cn1c2ccccc2c2ccccc21 (centres undefined)
→ 1.1	0.0
- COc1ccc(NC(=O)Nc2ccc3c(c2)C(=O)N([C@H](C)CO)C[C@H](C)[C@@H](CN(C)Cc2ccc(Oc4ccccc4)cc2)O3)cc1
→ -5.6	-0.8
- C[C@@H]1CN([C@H](C)CO)C(=O)c2cc(NC(=O)Nc3ccccc3)ccc2O[C@@H]1CN(C)S(=O)(=O)c1ccccc1
→ 5.5	-0.8
- C[C@@H]1CN([C@@H](C)CO)C(=O)c2cccc(NS(=O)(=O)c3cccs3)c2O[C@@H]1CN(C)C(=O)NC1CCCCC1
→ 1.7	x
- Cc1noc(C)c1NC(=O)Nc1cccc2c1O[C@@H](CN(C)Cc1ccc(Oc3ccccc3)cc1)[C@H](C)CN([C@@H](C)CO)C2=O
→ -1.7	x
- O=C(Cn1nc(-c2ccccc2)ccc1=O)NCCCN1CCCC1
→ 2.0	0.9
- C[C@@H]1CN([C@H](C)CO)C(=O)c2cccc(NC(=O)C3CC3)c2O[C@@H]1CN(C)CC1CCCCC1
→ -1.5	x
- C[C@@H]1CN([C@H](C)CO)C(=O)c2cc(NS(=O)(=O)c3ccc(F)cc3)ccc2O[C@H]1CN(C)S(=O)(=O)c1ccc(F)cc1
→ -1.3	0.8
- COc1cc2c(cc1OC)C(C)N(S(=O)(=O)c1ccc3[nH]c(=O)ccc3c1)CC2 (centres undefined)
→ -0.3	-0.1
- C[C@@H]1CN([C@H](C)CO)C(=O)c2cccc(NC(=O)c3ccncc3)c2O[C@@H]1CN(C)Cc1ccc(-c2ccccc2)cc1
→ -4.2	x
- COC(=O)c1ccc(NC(=O)N2CCOc3ccc(C)cc32)cc1
→ -0.4	-0.4
- CCOC(=O)c1cnc2c(C(F)(F)F)cccc2c1N1CCN(C)CC1
→ 5.0	-0.7
- CCOC(=O)c1c(C)c(C#N)c(/N=C/N(C)C)n1-c1ccc(Cl)cc1Cl
→ 5.8	-0.3
- O=C1OC(c2ccccc2)=N/C1=C\c1ccccc1C(F)(F)F
→ -0.4	0.4
- C[C@H](CO)N1C[C@H](C)[C@@H](CN(C)C)Oc2c(NS(=O)(=O)c3ccc(Cl)cc3)cccc2C1=O
→ 0.4	x
- CC12CN3CC(C)(CN(C1)C3c1ccc(O)cc1O)C2=O (centres undefined)
→ -5.6	-0.2
- C[C@H]1CN([C@@H](C)CO)C(=O)c2cc(NC(=O)Cc3ccccc3)ccc2O[C@@H]1CN(C)S(=O)(=O)c1cn(C)cn1
→ -0.9	-0.7
- C[C@@H]1CN([C@H](C)CO)C(=O)c2cc(NS(=O)(=O)c3cccs3)ccc2O[C@@H]1CN(C)C(=O)NC1CCCCC1
→ -4.5	0.7
- C[C@H]1CN([C@@H](C)CO)C(=O)c2cccc(NC(=O)c3ccncc3)c2O[C@H]1CN(C)C(=O)Nc1ccc(C(F)(F)F)cc1
→ 1.0	x
- N=c1n(CCO)c2ccccc2n1Cc1ccc(Cl)cc1
→ 1.0	-0.2
- Cc1cc(C)c2cc(C(=O)N3CCC(Cc4ccccc4)CC3)[nH]c2c1
→ 1.5	-0.2
- C=CCN1C(=O)c2ccccc2Sc2ccc(C(=O)NCC(OC)OC)cc21
→ -4.4	-0.5
- CCOC(=O)N1CCN(C(=O)c2ccc3nc(-c4ccccc4)c(-c4ccccc4)nc3c2)CC1
→ -10	-0.3

High-throughput results from PubChem BioAssay.
